# Compound activity: PubChem BioAssay, National Center for Advancing Translational Sciences (NCATS)
# 2A StopGo: High Throughput Screening for Foot and Mouth Disease Virus Antivirals; human cells with a luciferase reporter of 2A StopGo recoding; control for the full effect not named in the record; Potency, µM (top dose mostly 57.9 µM), inactives show at the highest dose signal change, negative = less light; 410,000 tested, 1.2% active; active = well fitted falling curve with a large enough effect; inconclusive = small, poorly fitted or top-dose-only effect; inactive = no such curve, though single readings can be large or run the other way; tested in HEK293T cells; note: % is set by controls: 0 for no effect and ±100 for the full control effect; nearly all actives have a fitted effect of over 45% in size; luciferase light after 4 h
# SARS PLpro yeast: qHTS of Yeast-based Assay for SARS-CoV PLP | S. cerevisiae expressing SARS-CoV PLpro, growth rescue; control for the full effect not named in the record | Potency, µM (series often up to 32.9 µM), for inactives: at the top dose activity, positive = growth rescue | 330,000 tested, 0.19% active; active means well fitted rising curve with a large enough effect; inconclusive means small, poorly fitted or top-dose-only effect; inactive means no such curve, though single readings can be large or run the other way; note: 0% is about no effect; nearly all actives have a fitted effect of over 55% in size; growth read by luminescence after 48 h
# Cruzain inh Det: qHTS Assay for Promiscuous and Specific Inhibitors of Cruzain (with detergent) | purified cruzain, Z-FR-AMC fluorescence, 0.01% Triton | Potency, µM, inactives show max response, negative = inhibition, most hits filed as inhibitors | 200,000 tested, 0.43% active | AID 1478, 2009;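 note: plate controls were neutral wells for no effect and buffer without enzyme for full effect; nearly all actives have a fitted effect of over 40% in size; top concentration of the series not given in the record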
# Target sequence (P25779 123-467 limits assumed): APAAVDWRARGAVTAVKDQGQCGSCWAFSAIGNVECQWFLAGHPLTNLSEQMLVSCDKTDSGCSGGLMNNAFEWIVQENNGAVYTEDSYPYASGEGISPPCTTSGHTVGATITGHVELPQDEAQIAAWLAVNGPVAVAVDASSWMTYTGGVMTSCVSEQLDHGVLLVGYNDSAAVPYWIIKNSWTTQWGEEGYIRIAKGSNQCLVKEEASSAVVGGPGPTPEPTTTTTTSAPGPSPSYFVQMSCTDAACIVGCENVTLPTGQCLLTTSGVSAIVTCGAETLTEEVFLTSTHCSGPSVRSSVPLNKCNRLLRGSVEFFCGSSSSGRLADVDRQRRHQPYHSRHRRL
#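 Steps: dispense cruzain (1.5 nM final) in acetate buffer pH 5.5 with DTT and 0.01% Triton X-100; pin-transfer compounds; incubate 15 min RT; add Z-FR-AMC (2 uM final); read fluorescence every 30 s, using the 60 s intensity change.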
# RE007 growth inh: qHTS Assay for Inhibitors of the HIV-1 protein Vpr; S. pombe RE007 Vpr strain, BacTiter-Glo ATP luminescence, 24 h; control for the full effect not named in the record; Potency, µM (highest dose often 92.2 µM), for the others: top-dose activity change, negative = less growth; 360,000 tested, 0.21% active; AID 651644, 2012; active = well fitted falling curve with a large enough effect; inconclusive = small, poorly fitted or top-dose-only effect; inactive = no such curve, though single readings can be large or run the other way;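 note: % is set by controls: 0 for no effect and ±100 for the full control effect; nearly all actives have a fitted effect of over 50% in size; the assay follows cell death caused by Vpr and the record does not say whether a fall means rescue or toxicity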
#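 Fission yeast RE007 carrying one integrated HIV-1 vpr copy, seeded at OD 0.01 in PMG+AL medium with 23 nL pinned compound. Grown 24 h at 30 degrees; viability read by BacTiter-Glo luminescence after 5 min.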
# Marburg entry inh: qHTS for inhibitors of binding or entry into cells for Marburg Virus; Marburg virus pseudotyped entry inhibition, cell reporter; control for the full effect not named in the record; about a third of the inactives were read at about 46 µM; Potency, µM (top dose mostly 37.8 µM), without a hit: at the top dose activity change, negative = inhibition, hits mostly inhibitors; 300,000 tested, 1.8% active; active = well fitted inhibition curve with a large enough effect; inconclusive = small, poorly fitted or top-dose-only effect, or effect the other way; inactive = flat fitted curve, though single readings scatter; tested in HEK293 cells; about a fifth of its hits are not listed in these tables; note: % is set by controls: 0 for no effect and ±100 for the full control effect; luciferase read-out
# LASV entry inh: qHTS for Inhibitors of binding or entry into cells for Lassa Virus | Lassa virus pseudotype entry inhibition, cell reporter; control for the full effect not named in the record | Potency, µM (series often up to 37.9 µM), for inactives: at the top dose activity change, negative = inhibition, usual class: inhibitors | 300,000 tested, 1.2% active | AID 540256, 2011; active means well fitted inhibition curve with a large enough effect; inconclusive means small, poorly fitted or top-dose-only effect, or effect the other way; inactive means flat fitted curve, though single readings scatter; tested in HEK293 cells; note: % is set by controls: 0 for no effect and ±100 for the full control effect; nearly all actives have a fitted effect of over 50% in size; luciferase read-out
# NS1 inh: qHTS Assay for Inhibitors of Influenza NS1 Protein Function; 270,000 tested, 0.4% active; AID 2326, 2010; Potency, µM (series often up to 46.1 µM), for inactives: at the highest dose activity, positive = more growth; S. cerevisiae slowed by influenza A NS1, growth recovery by OD600; active means well fitted rising curve with a large enough effect; inconclusive means small, poorly fitted or top-dose-only effect; inactive means no such curve, though single readings can be large or run the other way; note: nearly all actives have a fitted effect of over 50% in size
#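 OD600 was taken as the measure of yeast growth restored by compound in an NS1-expressing S. cerevisiae strain. Cells had been washed out of glucose medium and diluted 1:100 into galactose -URA medium, pH 6.0.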
# Cruzain noTriton: qHTS Assay for Promiscuous and Specific Inhibitors of Cruzain (without detergent) | Cruzipain (Trypanosoma cruzi), P25779 | Potency, µM, without a hit: max response, negative = inhibition, most hits filed as inhibitors | 200,000 tested, 2.3% active | purified cruzain, Z-FR-AMC fluorescence, no detergent;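 note: plate controls were enzyme without inhibitor for no effect and buffer without enzyme for full effect; nearly all actives have a fitted effect of over 40% in size; top concentration of the series not given in the record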
#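 Detergent-free condition (0.00005% Triton X-100) in acetate buffer pH 5.5 with DTT. 1.5 nM enzyme and compound were pre-mixed 15 min, then 2 uM Z-FR-AMC substrate added; reaction progress from fluorescence change between first and third reads (60 s).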
# * = called active by the depositor; u = inconclusive; x = not tested or not shown; [ ] = dose if it differs, or a comment. Unless noted, calls come from the whole dose curve; as a rule, active = well fitted curve in the direction sought with a large enough effect; inconclusive = small, poorly fitted or top-dose-only effect, or another doubt; inactive = no such curve, though single readings can be large; an effect the other way counts as inactive or inconclusive. Potency is the fitted concentration of half-maximal effect. Rows are unselected; 4.5% or so of the library scored in one or more.
Molecule | SARS PLpro yeast | Cruzain noTriton | Marburg entry inh | NS1 inh | LASV entry inh | Cruzain inh Det | 2A StopGo | RE007 growth inh
COc1cccc(CNC(=O)Cn2ncn3nc(-c4cccs4)cc3c2=O)c1 | x | -4.9% | -25.6%[46.1 µM] | x | 4.5%[46.1 µM] | -4.4% | 5.7% | x
CC(C)[C@H](NC(=O)N1c2ccccc2NC(=O)[C@@H]1C(C)C)C(=O)N[C@@H](Cc1ccccc1)C(=O)O | -3.0% | x | x | 14.8% | x | x | -4.6% | 6.1%
COc1ccc(OC)c(-c2cc(C3CCN(C(=O)OC(C)(C)C)CC3)[nH]n2)c1 | 0.8% | x | u | -6.4% | u | x | -15.1% | 8.0%
N#CC1=C(N)N2C(=C(C#N)C13CCCC3)Nc1ccccc12 | -0.5% | x | -23.1%[46.1 µM] | 6.8% | 12.3% | x | 9.5% | -5.9%
O=C(NNC(=O)C1CCCC1)c1ccccc1F | 5.8% | x | 29.4%[46.1 µM] | 3.9% | u | x | 48.6%[activator] | 10.8%
CCN(CC(=O)Nc1cccc(OC)c1)C(=O)c1cnc(Cl)c(Cl)c1 | 3.8% | x | 12.1%[46.1 µM] | 12.2% | 19.4%[46.1 µM] | x | -6.4% | 21.9%
COC(=O)C(C)n1cnc2c(nnn2-c2ccc(F)cc2)c1=O (configuration not stated) | 3.3% | x | x | -0.2% | x | x | -18.4% | 11.2%
O=C(c1ccc(Cl)cc1)N1CCN(c2cc(=O)[nH]nc2-c2ccccc2)CC1 | 6.7% | 11.9% | -7.0% | 21.1% | 8.4% | 5.6% | -3.4% | 15.8%
CCCCOc1ccc(C(=O)Nc2cc(-c3cn4cccnc4n3)ccc2OC)cc1 | x | -2.7% | x | x | -1.5%[46.1 µM] | 0.8% | 0.3% | x
O=C(N/N=C/c1c[nH]c2ccccc12)c1[nH]c2ccc(Br)cc2c1-c1ccccc1 | -7.3% | 2.3% | u | -10.1% | u | -2.1% | u | 3.2%
Cc1ccc(NC(=O)CN(C)C(=O)c2cc(-c3ccccc3)nn2-c2ccccc2)cc1 | -4.7% | x | -11.5% | x | -10.6% | x | -20.8% | -14.6%
CCOc1ccc2nc(N3CCCC(C(=O)Nc4ccc(OC)c(Cl)c4)C3)sc2c1 (configuration not stated) | x | -7.2% | u | x | x | -1.6% | 0.0% | x
Cc1ccc2c(c1)c(C)cc[n+]2Cc1ccccc1 | 23.0% | 3.9% | 10µM* | 1.9% | u | -1.0% | u | -26.1%
CC1C(=O)N2CCCc3cc(NC(=O)c4ccccc4F)cc1c32 (configuration not stated) | 2.4% | x | 2.9% | x | 12.5% | x | 16.6% | -7.7%
CCOC(=O)c1nn(-c2ccccc2)c(C(=O)OCC)c1N | -1.2% | u | 12.7% | -1.7% | -6.5% | -5.4% | -5.7% | 4.6%
CCN(CCCNC(=O)CSc1cc(=O)n(C)c2cc(Cl)ccc12)c1ccccc1 | x | u | 24.6%[46.1 µM] | x | u | -2.0% | -17.8% | x
O=Cc1c(NCc2ccccc2Cl)c2ccccc2[nH]c1=O | -11.0% | x | 19.5% | -37.1% | 5.1% | x | -6.4% | 47.3%
Cc1ccc2nc(-c3ccccc3)c(CN3CCOCC3)n2c1 | 0.0% | x | x | 1.4% | x | x | -8.1% | -1.9%
O=C(Nc1ccc(OC(F)F)cc1)c1ncc(Cl)c(Cl)c1Cl | -0.7% | x | -38.0%[46.1 µM] | x | 0.4% | x | 0.3% | -14.6%
CC(=O)c1c(C)[nH]c(C(=O)OCc2ccccc2)c1C | -4.8% | -5.4% | u | -13.9% | u | -5.8% | 4.3% | 3.2%

# Part of the list above, showing only Marburg entry inh and RE007 growth inh.
Molecule,Marburg entry inh,RE007 growth inh
CC1C(=O)N2CCCc3cc(NC(=O)c4ccccc4F)cc1c32 (configuration not stated),2.9%,-7.7%
CCOc1ccc2nc(N3CCCC(C(=O)Nc4ccc(OC)c(Cl)c4)C3)sc2c1 (configuration not stated),u,x

# Additional records follow:
Molecule | SARS PLpro yeast | Cruzain noTriton | Marburg entry inh | NS1 inh | LASV entry inh | Cruzain inh Det | 2A StopGo | RE007 growth inh
CNc1c([N+](=O)[O-])cnn1-c1ccc(Cl)cc1 | -1.9% | -0.8% | 10.5% | 1.9% | 8.6% | 1.5% | -12.4% | 22.5%
CCn1c(CNc2ccc(OC)cc2)nnc1SCC(=O)Nc1ccc(F)cc1 | 1.3% | -3.5% | 26.3% | 5.8% | -25.1% | -1.0% | -16.7% | 1.0%
Cc1ccc(SCC(=O)NC(=O)NCc2ccccc2)c(C)c1 | 9.4% | -16.5% | 6.3% | -8.1% | u | -8.0% | -8.3% | -6.3%
COc1cc(OC)cc(C(=O)NNC(=O)c2nn(C)c(=O)c3ccccc23)c1 | 3.1% | x | 16.5% | x | -10.8% | x | -25.9% | 3.0%
CN1CCCN(c2ccc([N+](=O)[O-])nc2)CC1 | 7.0% | x | 12.5%[46.1 µM] | -5.6% | 20.6%[46.1 µM] | x | 16.6% | -12.7%
CCn1nc(NC(=O)C(C)(C)C)c2cc3cccc(C)c3nc21 | -5.4% | x | x | -4.4% | x | x | u | -4.1%
O=C(COc1nsnc1N1CCOCC1)Nc1ccc(Br)cc1 | -1.1% | x | -11.0% | -1.3% | 8.0% | x | u | -1.5%
COc1cc(NC(=O)CCc2c(C)nn(-c3ccc4nnc(C)n4n3)c2C)cc(OC)c1OC | x | -4.0% | x | x | u | -0.9% | -12.9% | x
Cc1cccc(N2C(=O)CC(N3CCN(Cc4ccc5c(c4)OCO5)CC3)C2=O)c1 (configuration not stated) | 4.7% | 3.7% | 12.9% | -3.8% | 1.1% | 4.5% | 0.0% | -1.0%
COC(CNC(=O)c1cc(C(=O)c2c(-c3c(Cl)cccc3Cl)noc2C)c[nH]1)OC | -6.9% | u | -14.1% | u | -11.5% | 2.3% | -20.5% | 1.9%
Cc1ccccc1CNC(=O)c1cccc(NC(=O)c2nsc3ccccc23)c1 | x | u | x | x | u | -4.5% | 11.9% | x
CC(C)(Oc1ccc(Cl)cc1)C(=O)NC1CCSC1=O (configuration not stated) | -4.5% | 13.6% | -1.1% | -3.5% | 24.7% | -1.1% | 2.9% | -4.7%
CCOC(=O)COc1nc(-c2ccc(C)cc2)cc(-c2ccco2)c1C#N | 1.0% | x | x | 4.2% | x | x | -5.0% | -12.5%
CC(=O)Nc1ccc(CN2CCC(n3nccc3NC(=O)CCc3ccccc3)CC2)cc1 | -5.3% | x | x | -5.4% | x | x | -1.8% | -4.1%
CCOC(=O)c1sc(=S)[nH]c1C | x | x | 3.9% | x | 17.2% | x | -7.7% | 6.7%
Cc1cc(N2CCCCC2)nc2ccc(NC(=O)/C=C/c3ccccc3Cl)cc12 | x | -5.9% | -0.3%[46.1 µM] | x | -15.3%[46.1 µM] | -24.8% | -8.9% | x
O=c1[nH]c2ccc(S(=O)(=O)N3CCN(Cc4ccccc4)CC3)cc2[nH]c1=O | 0.3% | 10.1% | 15.8% | -9.7% | 2.8% | 1.0% | 12.2% | 3.5%
COC(=O)N/N=C/c1cccc(OCCSc2ccc(Cl)cc2)c1 | -10.7% | 23.0% | u | -10.8% | u | -10.1% | 1.4% | -3.1%
O=C(CNS(=O)(=O)c1ccccc1)NCc1ccco1 | -15.2% | x | 14.7%[46.1 µM] | 11.3% | 20.0% | x | 6.2% | -9.5%
O=c1[nH]c2cccnc2c2ccsc12 | -0.9% | x | -23.4%[14.2 µM] | 1.1% | 0.7% | x | 0.6% | 2.0%

# Later entries
Molecule | SARS PLpro yeast | Cruzain noTriton | Marburg entry inh | NS1 inh | LASV entry inh | Cruzain inh Det | 2A StopGo | RE007 growth inh
COC(=O)c1[nH]c2ccc(C)cc2c1NC(=O)CCN1CCN(C2CCCCC2)CC1 | 14.5% | -2.9% | -1.1% | 0.4% | x | -0.1% | x | x
COc1ccc(C(=O)COC(=O)c2ccc(N(C)C)cc2)cc1 | 13.0% | x | 0.2%[46.1 µM] | 2.1% | -0.5%[46.1 µM] | x | 25.3% | 6.4%
CCOC(=O)CC(=O)N/N=C/c1c(N)n(C)c(=O)n(C)c1=O | -2.3% | x | 20.2%[46.1 µM] | x | 12.2%[46.1 µM] | x | -3.7% | 5.0%
O=C(CSC(=S)N1CCCC1)c1cc(Br)cc(Br)c1O | 21.1% | x | u | x | -36.8% | x | -14.7% | -4.9%
Cc1ccc(S(=O)(=O)CCC(=O)OCC(=O)Nc2ncc(Cl)cc2Cl)cc1 | 1.4% | -15.4% | -12.1% | -12.2% | 2.8% | -18.0% | -12.5% | -15.4%
CCCC(C(=O)NC(C)(C)C)N(Cc1ccc(F)cc1)C(=O)c1snc(C(N)=O)c1N (configuration not stated) | -6.6% | x | x | 10.8% | x | x | -14.2% | -6.3%
O=C(NC(=S)NC1CCCC1)c1ccccc1 | 6.6% | x | u | -9.8% | 8.0%[46.1 µM] | x | 35.6%[activator] | -17.3%
COc1ccccc1NC(=O)CSc1nc2c(oc3ccccc32)c(=O)n1Cc1ccco1 | x | -4.8% | 2.3%[46.1 µM] | x | x | -1.4% | -18.7% | x
COc1ccc(N2CCN(Cc3ccc(Br)s3)CC2)cc1 | -1.9% | -0.2% | -0.1% | -9.3% | -0.4% | 0.2% | -9.2% | -4.3%
Cc1cc(C)c(C)c(S(=O)(=O)N2C(=S)NC(=O)C2C(C)C)c1C (configuration not stated) | -19.3% | 2.4% | 8.6% | -85.2% | 8.1% | -6.7% | u | 15.3%
CC1(C)Cc2c(sc(/N=C/N3CCCC3)c2C#N)C(C)(C)N1 | 10.2% | -13.1% | 6.0% | 3.8% | 8.2% | -7.6% | 12.2% | 3.3%
Cc1ccc(-n2nc(C)c(/C=N/n3c(C)n[nH]c3=S)c2Cl)cc1 | -1.6% | x | -8.9%[46.1 µM] | 5.0% | -27.4% | x | 0.0% | 4.6%
